Screening data (PubChem)
Menin-MLL FL inh = menin-MLL binding inhibition, fluorescein peptide | FP activity change, % at 61.4 µM | 290,000 tested, under 10 active | Fluorescence polarization, fluorescein-MLL peptide displacement from menin; inconclusive = falling polarisation curve, or a change in total fluorescence; inactive = total fluorescence flat and polarisation flat or rising; no compound was filed as active; the % refers to the polarisation; negative = inhibition;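 also: % of control where 0% means no effect; inhibitors lower the polarisation; unlabelled MLL peptide was the positive control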
TRPV1 potentiator = enhances activation of the human vanilloid receptor TRPV1; potentiation, % at 8.33 µM; Q8NER1; hit rate 0.02% among 320,000; TRPV1-expressing cells, Fluo-8 calcium influx, capsaicin EC20 potentiation; host cell line not named in the record; control for the full effect not named in the record; active means potentiation above 80%; inconclusive means 30% to 80%; inactive means below 30%; also: 0% is about no effect
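Fluo-8 calcium influx in TRPV1-expressing cells, kinetic read (ex 480/em 520 nm). Compound added and read 3 min for agonist activity, followed by capsaicin at EC20 final and 2 min further read for enhancement.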
PINK1 expr mod = changes PINK1 expression. PINK1 immunofluorescence, high-content cytometry, 24 h. Potency, µM (titrated, usually from 76.6 µM), for inactives: at the highest dose activation (PINK1 increase), usual class: activators. hit rate 0.2% among 410,000. AID 624263; active = well fitted activation curve with a large enough effect; inconclusive = small, poorly fitted or top-dose-only effect; inactive = flat fitted curve, though single readings scatter; cell line not stated here;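 also: potency is read from the fitted curve at half-maximal effect; % of control where 0% means no effect; nearly all actives have a fitted effect of over 65% in size; a mitochondrial uncoupler was the plate control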
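Measures PINK1 amount and localization on or inside mitochondria by immunofluorescence. Stable cells get compounds at 5 concentrations for 24 hours before fixation and staining; CCCP controls included.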
Sfp inh = inhibitors of Bacillus subtilis Sfp phosphopantetheinyl transferase; Q9F4F7; Biochemical Sfp PPTase activity, qHTS; Potency, µM, without a hit: max response, negative = inhibition, hits mostly inhibitors; hit rate 3.5% among 310,000; active = well fitted inhibition curve with a large enough effect; inconclusive = small, poorly fitted or top-dose-only effect, or another doubt; inactive = no such curve, though single readings can be large or run the other way;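 also: the enzyme is Sfp with the accession as filed and its product quenches rhodamine fluorescence; potency is read from the fitted curve at half-maximal effect; 0% = enzyme reaction without inhibitor and -100% = no enzyme wells; top concentration of the series not given in the record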
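Compounds were incubated with enzyme (final 15 nM) for 15 min at room temperature before substrate addition started the reaction. Fluorescence at 525 nm excitation, 598 nm emission was recorded immediately and after 30 minutes.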
TRPML1 ag = activates the human TRPML1 channel | AID 624414 | activation, % (test concentration not listed) | hit rate 0.12% among 410,000 | TRPML1-expressing cells, Ca2+ dye fluorescence, FDSS; host cell line not named in the record; reference of the full effect not given here; in the data active = activation above about 50%; inconclusive = about 30% to 50%; inactive = below about 30%; also: 0% is about no effect; the text of the record puts the active cut at 80%
Target sequence (Q9GZU1 whole entry, looked up): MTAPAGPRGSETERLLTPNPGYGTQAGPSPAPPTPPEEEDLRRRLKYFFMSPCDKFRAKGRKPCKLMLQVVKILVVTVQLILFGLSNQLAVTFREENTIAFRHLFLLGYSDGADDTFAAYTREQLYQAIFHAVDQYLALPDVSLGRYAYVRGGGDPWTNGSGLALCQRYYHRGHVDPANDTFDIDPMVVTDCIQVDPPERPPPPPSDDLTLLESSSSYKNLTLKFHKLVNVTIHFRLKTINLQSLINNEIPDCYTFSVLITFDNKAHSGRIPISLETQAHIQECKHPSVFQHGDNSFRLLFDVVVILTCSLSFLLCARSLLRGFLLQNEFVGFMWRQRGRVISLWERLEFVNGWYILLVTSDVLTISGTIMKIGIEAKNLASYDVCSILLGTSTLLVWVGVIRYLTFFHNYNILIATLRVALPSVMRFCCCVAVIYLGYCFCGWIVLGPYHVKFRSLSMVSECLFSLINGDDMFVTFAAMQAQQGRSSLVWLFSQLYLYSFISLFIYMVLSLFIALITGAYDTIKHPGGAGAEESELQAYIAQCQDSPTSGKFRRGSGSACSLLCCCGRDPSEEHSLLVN
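Calcium fluorescence on an FDSS kinetic reader gave the read-out. Tet-induced TRPML1-DL cells were plated overnight, dye-loaded (Ca8 with quencher, 45-90 min, room temperature, dark), then read 110 s after compound addition, and again 110 s after 4uM final 54-4 (EC80).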
ClpP mod = qHTS Assay for Activators of ClpP | ATP-dependent Clp protease proteolytic subunit (Bacillus subtilis (strain 168)), P80244 | Potency, µM (doses to about 57.5 µM), for inactives: at the top dose activity change, negative = active | purified B. subtilis ClpP, FRET peptide cleavage, 20 min | hit rate 1.9% among 340,000 | AID 651965, 2013; active = well fitted falling curve with a large enough effect; inconclusive = small, poorly fitted or top-dose-only effect; inactive = no such curve, though single readings can be large or run the other way; also: potency is read from the fitted curve at half-maximal effect; the source files actives as falling curves though it sought activators and does not explain the sign; nearly all actives have a fitted effect of over 65% in size; many hits overshoot -100%
Target sequence (P80244 whole entry, looked up): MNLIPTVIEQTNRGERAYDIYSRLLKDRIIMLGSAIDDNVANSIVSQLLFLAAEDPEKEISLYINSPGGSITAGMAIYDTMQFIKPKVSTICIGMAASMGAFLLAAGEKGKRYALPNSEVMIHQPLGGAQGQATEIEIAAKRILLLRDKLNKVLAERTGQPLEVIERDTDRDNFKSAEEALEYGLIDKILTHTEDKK
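FRET quenching reversal measured ClpP activation: 10 microg/mL B. subtilis ClpP at pH 8 with the FRET-FV decapeptide, read at 430 nm after 320 nm excitation. The 20-min minus 0-min signal was scaled between DMSO/no-enzyme wells and ADEP (5.8 microM final).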
TRPML1 inh = inhibitors of human TRPML1 channel; Q9GZU1; TRPML1-inducible cells, Ca2+ dye fluorescence, FDSS; active compounds read low; inhibition of EC80 agonist-evoked calcium signal; activity change, negative = inhibition, % (test concentration not listed); hit rate 0.02% among 390,000; AID 624415; in the data active means activity change below about -50%; inconclusive means about -30% to -50%; inactive means above about -30%;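 also: stimulus is agonist 54-4 at its EC80 concentration; % is scaled to controls: 0 for no effect and ±100 for the full control effect; compound concentration not given in the record; the text of the record puts the active cut at -80%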
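TRPML1-DL cells, Tet-induced overnight (~16 h, 37 °C) at 1,500 cells/well, were loaded with Ca8 no-wash dye plus quencher for 45-90 min at room temperature. Compounds were pinned during FDSS kinetic reading; agonist 54-4 at EC80 (4 uM final) then added.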
* hit, by the source's call; & = joins results of further samples; [ ] = another dose, or the depositor's remark.

Screening O=C(NCc1ccccn1)C1C2C=CC(C2)C1C(=O)Nc1ccc(F)cc1 (stereo not drawn) returned Menin-MLL FL inh 2.5, TRPV1 potentiator 6.9, PINK1 expr mod -0.7%, Sfp inh 16.0%, TRPML1 ag 0.3, ClpP mod 0.4% and TRPML1 inh -12.4.
`Cc1cccc(NC(=O)CN(CCc2ccccc2)S(C)(=O)=O)c1` gave Menin-MLL FL inh -1.7, TRPV1 potentiator -7.7, PINK1 expr mod 1.7%, Sfp inh 15.8%, TRPML1 ag 0.1, ClpP mod 0.5% and TRPML1 inh 9.5.
CCOC(=O)COc1ccc(/C=C/[N+](=O)[O-])c(OCC(=O)OCC)c1 was read as Menin-MLL FL inh 1.8, TRPV1 potentiator 8.4, PINK1 expr mod -0.8%[38.3 µM], Sfp inh -29.8%, TRPML1 ag 0.5, ClpP mod -1.8% and TRPML1 inh 11.7.
Cc1ccnc(NS(=O)(=O)c2ccc(NC(=O)C3CCCNC3=O)cc2)n1 (stereo not drawn) was read as Menin-MLL FL inh 5.8, TRPV1 potentiator -9.2, PINK1 expr mod 3.5%, Sfp inh 14.2%, TRPML1 ag -0.4, ClpP mod 2.9% and TRPML1 inh -4.6.
`Cc1cccc(NC(=O)CSc2nnc(-c3n[nH]c4ccccc34)o2)c1` gave Menin-MLL FL inh 2.7, TRPV1 potentiator 1.1, PINK1 expr mod 5.1%, Sfp inh -3.8%, TRPML1 ag 0.0, ClpP mod -10.3% and TRPML1 inh 7.3.
For O=C(COC(=O)CNC(=O)c1ccco1)NCCN1C(=O)CSC1=O the results were Menin-MLL FL inh 0.4, TRPV1 potentiator 17.7, PINK1 expr mod -7.3%[38.3 µM], Sfp inh 5.2%, TRPML1 ag 0.3, ClpP mod -2.1% and TRPML1 inh -11.5.
Screening COc1ccc(CNC(=O)c2cc3c(s2)-c2ccccc2OC3)cc1 returned PINK1 expr mod 2.7%, TRPML1 ag 0.7, ClpP mod 3.9% and TRPML1 inh 13.5.
Screening O=C(NC1CCSc2ccccc21)c1cc([N+](=O)[O-])ccc1N1CCOCC1 (stereo not drawn) returned TRPV1 potentiator -1.5, PINK1 expr mod -0.2%, TRPML1 ag 0.4, ClpP mod 0.9% and TRPML1 inh 15.2.
For O=C1CC(NCC2CCCO2)C(=O)N1c1ccc(Cl)cc1 (stereo not drawn) the results were Menin-MLL FL inh 0.5, TRPV1 potentiator 10.1, PINK1 expr mod 0.7%, Sfp inh -8.0%, TRPML1 ag 0.3, ClpP mod 1.2% and TRPML1 inh 10.3.
N#Cc1ccc(C(=O)N2CCN(c3ncccn3)CC2)cc1 was read as Menin-MLL FL inh -2.7, TRPV1 potentiator -1.7, PINK1 expr mod -1.5%, Sfp inh 19.1%, TRPML1 ag -0.5, ClpP mod 0.0% and TRPML1 inh 10.9.
Screening Cc1ccc2nc(COc3ccccc3NC(=O)C(C)(C)C)cc(=O)n2c1 returned PINK1 expr mod 1.3%, TRPML1 ag 0.1, ClpP mod 25.1µM* and TRPML1 inh -19.6.
Cc1cc(N2CCN(C)CC2)nc2ccc(NC(=S)N3CCN(c4ccc(F)cc4)CC3)cc12 was read as Menin-MLL FL inh -1.6, TRPV1 potentiator 15.7, PINK1 expr mod 1.4%, Sfp inh 24.9% and ClpP mod -1.0%.
COC(=O)c1noc(-c2ccc(OC)cc2)n1 was read as Menin-MLL FL inh 1.4, TRPV1 potentiator -4.7, PINK1 expr mod 2.0%, Sfp inh 19.1%, TRPML1 ag 0.6, ClpP mod -7.7% and TRPML1 inh 13.8.
Screening Cc1cc2occ(CC(=O)NNC(=O)c3ccccc3F)c2cc1C returned TRPV1 potentiator -3.7, PINK1 expr mod 1.2%, Sfp inh -0.3%, TRPML1 ag -0.3, ClpP mod -2.7% and TRPML1 inh 17.4.
Screening CCN(CC(=O)NC1CCS(=O)(=O)C1)S(=O)(=O)c1cccc(C(C)=O)c1 (stereo not drawn) returned Menin-MLL FL inh 0.6, TRPV1 potentiator inconclusive, PINK1 expr mod 0.1%, Sfp inh 0.1%, TRPML1 ag -0.2 and TRPML1 inh -3.0.
For NC(=O)CC(NC(=O)c1cccc(Br)c1)c1ccc(NCCN2CCOCC2)c([N+](=O)[O-])c1 (stereo not drawn) the results were Menin-MLL FL inh 1.7, TRPV1 potentiator 8.3 and Sfp inh 15.7%.
Screening CCOc1ccccc1CNc1nc2nc(C)c(CC(=O)OC)c(=O)n2[nH]1 returned PINK1 expr mod 1.4%, TRPML1 ag -0.3, ClpP mod -10.7% and TRPML1 inh 5.6.
`CC(C)Cc1ccc(CN2CCCC(NC(=O)CCN3CCCCC3=O)C2)cc1` (stereo not drawn) gave Menin-MLL FL inh -2.1, TRPV1 potentiator -20.8, PINK1 expr mod 0.0%, Sfp inh 6.2%, TRPML1 ag -0.5, ClpP mod -3.2% and TRPML1 inh 6.7.
For O=C1NCN(C2CCCCC2)CN1 the results were PINK1 expr mod 2.6%, TRPML1 ag 0.2 and TRPML1 inh 39.3.
`COC(=O)c1sc2ccccc2c1NC(=O)c1cccs1` gave Menin-MLL FL inh 3.8, TRPV1 potentiator -4.9, PINK1 expr mod -2.6%[38.3 µM], Sfp inh inconclusive, TRPML1 ag 0.9, ClpP mod -3.5% and TRPML1 inh 14.2.
COc1cccc(NC(=O)c2ccc(CNS(=O)(=O)c3ccc4c(c3)C(C)(C)C(=O)N4C)cc2)c1 was read as PINK1 expr mod 1.8%, TRPML1 ag 1.0, ClpP mod -0.2% and TRPML1 inh 4.9.
For COc1ccc(S(=O)(=O)NCC(c2ccc3c(c2)OCO3)N2CCN(c3ccccc3)CC2)cc1 (stereo not drawn) the results were TRPV1 potentiator 3.7, PINK1 expr mod 0.7%, TRPML1 ag 2.2 and TRPML1 inh 0.8.
`CC1CCN(CC(=O)n2c3c(c4ccccc42)CCCC3)CC1` gave Menin-MLL FL inh 6.5, TRPV1 potentiator 1.8, PINK1 expr mod -4.1%[38.3 µM], Sfp inh -8.1%, TRPML1 ag 0.4, ClpP mod -0.9% and TRPML1 inh -0.7.
`Cc1cc2c(cc1S(=O)(=O)N1CCN(c3ccccc3F)CC1)OCC(=O)N2` gave Menin-MLL FL inh -2.3, TRPV1 potentiator -3.9, PINK1 expr mod 6.7%, Sfp inh 25.7%, TRPML1 ag -0.2, ClpP mod -0.2% and TRPML1 inh -1.1.
`CCOC(=O)C1=C(C)N=c2s/c(=C/c3ccc(OCC(=O)O)c(OC)c3)c(=O)n2C1c1ccc(Cl)cc1` (stereo not drawn) gave PINK1 expr mod 4.7%, TRPML1 ag 6.0, ClpP mod 0.4% and TRPML1 inh -19.7.
Screening COc1cc(C(=O)NCCOc2ccc(F)cc2)c(Br)c(OC)c1OC returned Menin-MLL FL inh 6.6, TRPV1 potentiator 2.1, PINK1 expr mod 3.6%, Sfp inh 18.0%, TRPML1 ag 0.8 and TRPML1 inh -11.3.
For COC(=O)N1C(=O)[C@@](CC(C)C)(c2ccccc2)N1C(=O)OC the results were Menin-MLL FL inh -4.7, TRPV1 potentiator -25.9 and Sfp inh -9.2%.
`COc1cc(C)ccc1OCc1cc(C(=O)NCCN2CCCC(O)C2)no1` (stereo not drawn) gave Menin-MLL FL inh 4.3, TRPV1 potentiator 5.9, PINK1 expr mod -0.1%, Sfp inh 7.7%, TRPML1 ag -0.3, ClpP mod -1.4% and TRPML1 inh 0.1.
Screening COc1ccc(S(=O)(=O)N2CCN(C(=S)NCCc3ccccc3)CC2)cc1 returned TRPV1 potentiator -0.6, PINK1 expr mod -0.3%, Sfp inh 6.3%, TRPML1 ag 1.9, ClpP mod 0.5% and TRPML1 inh -8.4.
For Cc1ccc(S(=O)(=O)Nc2cccc(NC(=O)CN3CCCCC3)c2)cc1 the results were Menin-MLL FL inh 1.3, TRPV1 potentiator 4.2, PINK1 expr mod 1.8%, Sfp inh -7.8%, TRPML1 ag 0.0, ClpP mod -1.3% and TRPML1 inh -7.3.
For Cc1cc2ccccc2c(=O)n1CC(=O)NC1CCCCCC1 the results were Menin-MLL FL inh 8.2, TRPV1 potentiator -14.4, PINK1 expr mod 0.4%, Sfp inh -5.5%, TRPML1 ag 0.0, ClpP mod 1.2% and TRPML1 inh -7.1.
`CC1=CC(C)(C)N(S(=O)(=O)c2ccc(C)cc2)c2ccc(C)cc21` gave Menin-MLL FL inh 6.2, TRPV1 potentiator 1.2, PINK1 expr mod inconclusive, Sfp inh -5.3%, TRPML1 ag -0.1, ClpP mod 1.4% and TRPML1 inh 25.8.
`Cc1ccc(SCC(=O)Nc2ccc(S(=O)(=O)Nc3ncccn3)cc2)cc1` gave Menin-MLL FL inh 1.5, TRPV1 potentiator 10.9, PINK1 expr mod -1.3%, Sfp inh -14.7%, TRPML1 ag -0.3, ClpP mod -0.3% and TRPML1 inh -7.8.
`CCOC(=O)CN(C(=O)CSc1nnc(-c2cccc(OC)c2)o1)c1ccc(F)cc1` gave Menin-MLL FL inh 3.4, TRPV1 potentiator 0.7, PINK1 expr mod -1.3%, Sfp inh 0.7%, TRPML1 ag 1.9, ClpP mod 2.1% and TRPML1 inh 22.0.
For COc1ccc(COC(=O)N/C=C/c2ccco2)cc1 the results were Menin-MLL FL inh inconclusive, TRPV1 potentiator 6.8, PINK1 expr mod -1.8%, Sfp inh -9.9%, TRPML1 ag 1.8 and TRPML1 inh 2.0.
Cc1cccc(CNc2ncnc3ccc(-c4cccnc4)cc23)c1 was read as Menin-MLL FL inh 3.6, PINK1 expr mod 0.2%&-1.1% and Sfp inh -0.6%.
Cc1cccc(NC2=NC(=S)N(c3ccc(C(=O)O)cc3)C23CCCCC3)c1 was read as Menin-MLL FL inh -1.7, TRPV1 potentiator 9.9, PINK1 expr mod -0.4%, Sfp inh 21.2%, TRPML1 ag -1.0, ClpP mod -5.7% and TRPML1 inh -4.0.
CCCCN(C/C=C/c1ccccc1OC)Cc1ccccc1 was read as Menin-MLL FL inh 1.1, TRPV1 potentiator -5.6, PINK1 expr mod 10.5%, Sfp inh -3.0%, TRPML1 ag 1.3, ClpP mod -27.7% and TRPML1 inh 14.6.
CCN(CC(=O)Nc1c(F)cccc1F)C(=O)CCN1C(=O)c2cccc([N+](=O)[O-])c2C1=O was read as TRPV1 potentiator -3.1, PINK1 expr mod 1.3%, TRPML1 ag 0.1, ClpP mod 0.6% and TRPML1 inh 5.5.

Rows were taken by chance. About 4.4% of those tested had a hit in this group.
